CSC inhib: blocks cancer stem cells; cancer stem cell-like cells viability, luminescence; 300,000 tested, 1.1% active; inhibition, % at 7.5 µM;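 active = mean at 75% or more and at least half the replicates too; tested in HMLE shEcad cells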;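 also: 0% = median of negative and 100% = median of positive control wells; the first replicate is given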
eIF4H FP inh: inhibitors of RNA binding by human eIF4H; AID 2012; 290,000 tested, 0.94% active; eIF4H fluorescence polarization binding assay; inhibition, % at 35 µM;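 active = 50% or more with normal probe brightness, or confirmed in later tests; about a fifth of its hits are not listed in these tables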;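 also: calls also rest on retests at 20 µM and on dose response follow-up; 0% = protein and probe with vehicle and 100% = probe without protein; strong numbers were not always called active; many hits fall short of the cut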
Rce1 inh: blocks yeast Ras-converting enzyme; 290,000 tested, 0.27% active; yeast membranes, quenched prenylated peptide cleavage fluorescence; calls only; AID 2563;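 active = fall in fluorescence gain of 50% or more versus controls, with final raw signal at or below 3038400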;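 also: plate controls were neutral control wells for no effect and wells lacking membranes for full effect; tested at 10 µM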
Target sequence (Q03530 whole entry, looked up): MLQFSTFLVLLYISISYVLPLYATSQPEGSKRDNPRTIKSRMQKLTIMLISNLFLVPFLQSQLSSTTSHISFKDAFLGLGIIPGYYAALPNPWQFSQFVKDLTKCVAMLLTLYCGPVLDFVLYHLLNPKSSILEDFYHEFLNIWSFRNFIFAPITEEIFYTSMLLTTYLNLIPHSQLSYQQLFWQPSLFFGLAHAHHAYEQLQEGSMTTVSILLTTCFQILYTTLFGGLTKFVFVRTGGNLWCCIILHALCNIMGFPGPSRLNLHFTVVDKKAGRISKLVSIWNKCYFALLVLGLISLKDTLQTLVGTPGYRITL
UUG fidelity: alters start codon recognition fidelity in yeast | S. cerevisiae UUG-firefly luciferase reporter, luminescence/redox ratio | activity score, % at 18.7 µM | 350,000 tested, 0.13% active | AID 602363;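 active = replicate mean at a twofold rise or more, about +100% in these data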;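 also: firefly luciferase made from a UUG start codon reports start codon fidelity; reporter light over untreated wells divided by growth signal over untreated wells; some hits fall short of that in this replicate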
HIV Env fusion: HIV envelope-mediated fusion inhibition. HeLa-JRFL Env/CEM21 cell fusion, luciferase. inhibition, % at 12.3 µM. 360,000 tested, 1.1% active. AID 651610;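 active = mean replicate inhibition score of at least 50 and every replicate individually at or above 50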;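 also: 0% = plate neutral controls and 100% = maraviroc near 300 nM; one replicate is shown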
MT1-MMP act inh: MT1-MMP (human) activation inhibition; P50281; GFP/RFP ratio change, % at 20 µM; AID 651647; 360,000 tested, 0.061% active; HT1080 RFP-PRO-GFP cells, GFP/RFP ratio fluorescence, overnight; percent of plate control window, DMSO zero;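 active = GFP/RFP ratio change of at least 30% with cell ATP level not reduced by more than half and red fluorescence within 50% of control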; also: strong numbers were not always called active
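Material – HT1080 RFP-PRO-GFP cells · Control set – DMSO wells and RFP-L50D-GFP cells · Incubation – overnight cell settling, then overnight compound exposure, 37 °C, 5% CO2 · Compound dosing – single-point 20 µM compound, 1% DMSO · Read-out – GFP/RFP fluorescence ratio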
PABP FP inh: PABP-poly(A) binding inhibition; P11940; PABP-poly(A) RNA binding, fluorescence polarization; inhibition, % at 35 µM; 290,000 tested, 1% active; AID 2014;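 active = 50% or more with normal probe brightness, or confirmed in later tests; about a fifth of its hits are not listed in these tables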;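 also: calls also rest on retests at 20 µM and on dose response follow-up; controls were probe without protein and protein plus probe with vehicle; some compounds called inactive have numbers as strong as hits; many hits fall short of the cut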
Target sequence (P11940 whole entry, looked up): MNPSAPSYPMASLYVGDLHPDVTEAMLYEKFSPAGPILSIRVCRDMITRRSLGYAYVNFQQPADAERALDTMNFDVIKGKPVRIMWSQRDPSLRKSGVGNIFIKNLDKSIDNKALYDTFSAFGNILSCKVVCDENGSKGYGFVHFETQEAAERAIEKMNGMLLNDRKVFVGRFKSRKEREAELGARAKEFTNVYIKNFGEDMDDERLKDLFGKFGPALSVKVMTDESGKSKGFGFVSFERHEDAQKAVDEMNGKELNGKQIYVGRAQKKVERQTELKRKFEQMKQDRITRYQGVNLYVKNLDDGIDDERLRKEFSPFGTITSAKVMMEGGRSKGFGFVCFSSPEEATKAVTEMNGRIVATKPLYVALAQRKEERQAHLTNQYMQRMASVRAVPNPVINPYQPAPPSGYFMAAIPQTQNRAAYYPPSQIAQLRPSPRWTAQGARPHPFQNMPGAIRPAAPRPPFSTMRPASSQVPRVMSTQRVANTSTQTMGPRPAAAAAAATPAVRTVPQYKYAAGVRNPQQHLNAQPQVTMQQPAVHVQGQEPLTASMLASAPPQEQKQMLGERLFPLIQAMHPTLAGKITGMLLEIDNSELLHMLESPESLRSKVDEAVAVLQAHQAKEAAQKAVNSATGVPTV
eIF4H FP inh retest: further read-out of eIF4H FP inh, marked with its call; inhibition, %; compound at 20 µM; confirmation average;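 mean of two retest wells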
PABP FP inh retest: second read-out of PABP FP inh, no call of its own (marks repeat the call); inhibition, %; compound at 20 µM; confirmation repeats;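 mean of two retest wells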
MT1-MMP act inh RFP: further read-out of MT1-MMP act inh, marked with its call; RFP signal change, %; measured here: RFP expression control read;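 0 = vehicle wells; hits needed this value within 50% of zero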
Starred values were filed as active, the others as inactive; i = inactive; . = no result given; & = joins results of further samples. Some of the compounds tested; the hit share may differ from the screen's.

SMILES | CSC inhib | eIF4H FP inh | Rce1 inh | UUG fidelity | HIV Env fusion | MT1-MMP act inh | MT1-MMP act inh RFP | PABP FP inh | others
CC(C)c1ccc(C(O)c2cnc(C(C)C)n2C)cc1 (stereo unspecified) | -8.1 | 2.7 | i | -20.8 | 2.8 | 0.4 | -6.3 | -7.0
CCOC(=O)CCN(Cc1sccc1C)S(=O)(=O)c1ccc(F)cc1 | . | -2.0 | i | . | -19.7 | 6.6 | 0.7 | 7.5
CC(C)c1ccccc1OCC(=O)Nc1cc(S(=O)(=O)N2CCOCC2)ccc1N1CCCC1 | -3.1 | . | i | . | 9.5 | 0.5 | -6.4 | .
CN(C(=O)COC(=O)c1ccccc1Nc1ccccc1)C1CCS(=O)(=O)C1 (stereo unspecified) | -9.7 | -0.5 | i | . | . | -7.8 | -2.1 | 0.8
Cc1nn(C)c(NC(=O)c2ccccc2Cl)c1Br | -2.3 | -1.0 | i | -13.0 | 2.8 | 2.7 | -0.2 | -3.4
CC(C)OC(=O)c1cc2ccccc2oc1=O | -2.9 | -3.2 | i | -6.3 | -58.5 | -3.7 | 2.1 | -7.5
COc1ccccc1-c1nc2c3ccccc3nc(=S)n2[nH]1 | 0.4 | -7.8 | i | -26.6 | 3.5 | 8.7 | 1.4 | -12.3
O=C(NC(c1ccc(-c2ccccc2)cc1)c1cnccn1)C1CCN(CCOc2ccc(Cl)cc2Cl)CC1 (stereo unspecified) | . | . | . | -19.5 | -5.5 | -3.2 | -7.1 | .
COc1ccccc1NC(=O)CCC(=O)OCc1ccc([N+](=O)[O-])cc1 | 11.6 | -7.4 | i | . | 0.6 | 1.8 | 4.1 | -0.2
Cc1ccccc1CC(=O)N1CCN(C(=O)C2CCCO2)CC1 (stereo unspecified) | -12.5 | -7.6 | i | -3.9 | 2.4 | -3.5 | -2.8 | 7.2
CN(C)C(=O)COC(=O)c1ccccc1NC(=O)c1ccco1 | 7.6 | -2.5 | i | . | -3.9 | -0.7 | 0.3 | 4.7
O=C1NC(Cc2ccc(O)cc2)c2nc3ccccc3c(=O)n2-c2ncccc21 (stereo unspecified) | . | . | . | -10.7 | 1.5 | -4.5 | 2.2 | .
CN1CCN(CCCNC(=O)c2cn(C3CCCCC3)c(=O)c3c2c2ccccc2n3C)CC1 | -9.9 | -2.0 | i | -16.8 | . | -3.7 | -0.2 | 2.4
CS(=O)(=O)N1CC(C(=O)O)Oc2ccc(CC(=O)O)cc21 (stereo unspecified) | -8.0 | 76.1 | i | . | 6.7 | 3.4 | 1.9 | 1.2 | eIF4H FP inh retest=29.6;PABP FP inh retest=1.8
Cc1ccccc1C(=O)N1CCN(c2ccc(NC(=O)c3ccc([N+](=O)[O-])o3)cc2)CC1 | 90.9* | -6.6 | . | -5.3 | -23.2 | -15.8 | -31.6 | -7.0
NS(=O)(=O)c1ccc(NC(=O)CSc2nnc(Cc3cccs3)n2-c2ccccc2)cc1 | -11.9 | -10.2 | i | 4.5 | . | 2.4 | -2.4 | -2.9
O=C(c1cc2c(cc1Br)OCCCO2)N1CCCCC1 | -9.4 | 0.7 | i | . | 16.9 | 5.9 | 5.5 | 0.2
N#C/C(=C\c1ccc(F)c(Cl)c1)S(=O)(=O)c1ccccn1 | -7.5 | 0.2 | i | . | 0.1 | 0.9 | 3.0 | -2.0
COc1ccc(-n2nnnc2C(CCc2ccccc2)N2CCN(C/C=C/c3ccccc3)CC2)cc1 (stereo unspecified) | . | . | . | 4.9 | -20.7 | -1.5 | -16.7 | .
CCCCCC(O)c1cccc(OCc2ccc3ccccc3n2)c1 (stereo unspecified) | 14.1 | -0.4 | i | -5.2&1.0 | . | -3.7 | -13.9 | 18.8
OCCN(Cc1ccccc1)CC1CC=CCC1 (stereo unspecified) | -12.8 | -7.2 | i | -12.2 | . | 1.5 | 2.2 | -4.9
CC(=O)Nc1ccc(/C=N/NC(=O)c2cc3ccccc3nc2C)cc1 | 4.2 | 2.4 | i | -12.0 | . | 0.6 | -0.4 | 3.0
CC(=O)Nc1c(O)[nH]c2ccccc12 | -1.8 | -13.2 | i | -11.7 | . | 0.1 | 3.7 | 9.1
Cn1nc(-c2ccccc2)cc1NS(=O)(=O)c1ccccc1 | -3.3 | -7.4 | i | . | 8.5 | -0.4 | 0.5 | -0.7
O=C(N/N=C/c1coc2ccccc2c1=O)c1cn(-c2ccccc2)nc1-c1ccccc1 | -1.9 | -13.0 | i | -25.1 | 8.1 | -5.5 | 0.7 | -4.6
Cc1ccc2nc(C)cc(N/N=C/c3ccccc3O)c2c1 | -11.0 | -0.9 | i | -19.1 | 11.2 | 4.5 | 6.0 | -0.4
Cc1[nH][nH]c(=O)c1/C=N/N1CCOCC1 | 2.9 | 8.3 | i | -17.7 | -7.2 | 0.1 | 2.7 | 34.7
CCOc1cc(/C=C/c2ccc3cccc([N+](=O)[O-])c3n2)cc(Cl)c1O | 58.7 | 5.2 | i | . | 9.6 | -0.5 | -6.8 | 7.6
COc1cc2c(cc1OC)C(c1cc(OC)c(OC)cc1[N+](=O)[O-])N(C(C)=O)CC2 (stereo unspecified) | -12.4 | 4.3 | i | . | 1.9 | 3.9 | 5.4 | 3.7
O=S(=O)(Nc1ccc2c(c1)OCCO2)c1cnc[nH]1 | -5.5 | -2.8 | i | -18.2 | . | 1.0 | 0.3 | 1.8
Cc1c(C)[n+](=O)c(-c2cccs2)c(C)n1[O-] | -5.9 | -5.0 | i | 12.0 | . | 11.4 | 7.3 | 0.4
O=C(/C=C/c1c(Cl)nc2ccccn12)N1CCCCC1 | . | -0.3 | i | . | 1.5 | 0.0 | -0.1 | 7.1
CNC(=O)COc1coc(CN2CCN(c3ccccc3OC)CC2)cc1=O | -2.1 | -12.1 | i | -10.2 | -3.6 | 1.7 | 4.9 | -2.0
CC(C)CNC(=O)c1cc(-c2ccc3c(c2)OCO3)on1 | 55.7 | -2.3 | i | -23.1 | -143.5 | 3.9 | 2.6 | 5.9
Cc1ccc(OCC(=O)NNC(=O)c2ccc3c(=O)n4c(nc3c2)CCC4)cc1 | 1.5 | . | i | 10.8 | -4.2 | 2.3 | 5.6 | .
O=S(=O)(c1ccc2ccccc2c1)N1CCN(C2CCN(Cc3ccccc3)CC2)CC1 | 50.8 | 11.5 | i | -0.6 | 39.5 | 3.9 | -4.9 | 14.8
O=C(COc1ccc2c3c(c(=O)oc2c1)CCCC3)NCCCn1ccnc1 | -0.9 | 1.3 | i | -8.6 | -15.2 | 2.9 | 0.9 | -8.5
COc1ccc(C(=O)OCC(=O)Nc2ccc(OC)c(S(=O)(=O)N3CCCCC3)c2)cc1[N+](=O)[O-] | . | . | . | -2.2 | 17.0 | 1.4 | 3.3 | .
CC1CC(OCC(O)C[N+]2(C)CCOCC2)CC(C)(C)C1 (stereo unspecified) | 7.5 | 1.1 | i | . | -3.0 | -0.3 | 2.6 | 24.2
COc1ccc(N/C(=N/c2nc(C)cc(C)n2)NC(=O)Nc2ccc(Cl)c(Cl)c2)c(OC)c1 | -5.1 | 1.7 | i | -4.4 | . | -0.5 | -3.4 | 7.0
Cc1ccc2nc(Cl)c(C#N)cc2c1 | -16.3 | -1.9 | i | . | 0.1 | -0.9 | -0.2 | -7.4
Oc1ccc(Cn2ccnc2)c2cccnc12 | . | 18.6 | i | . | -5.1 | 5.9 | 9.3 | -1.9
CC(=O)OCC12COC3c4ccccc4OC(C)(CC1C)C3C2C (stereo unspecified) | -6.3 | 0.6 | i | -7.9 | -13.0 | -1.9 | -2.3 | 3.3
O=C(CSC1=NS(=O)(=O)c2cc(Cl)ccc2N1)Nc1ccccc1F | 4.8 | . | i | . | -2.0 | -5.0 | -3.5 | .
CCCCN(C)CCC(=O)Nc1ccc(F)c(F)c1 | -14.3 | -11.7 | i | . | 5.9 | 3.1 | 2.3 | -4.1
COc1ccc(-c2nnnn2C)cc1S(=O)(=O)Nc1ccc(C)cc1C | -12.7 | -5.7 | i | -4.1 | 12.4 | -7.9 | -2.3 | -5.7
O=C(CS(=O)(=O)c1ccccc1)N1CCN(c2ccccc2)CC1 | -5.2 | . | i | -7.0 | 8.1 | 0.1 | -0.4 | .
Cc1cc(C)c(NC(=O)Cn2c([N+](=O)[O-])cnc2C)c(C)c1 | 1.4 | -6.9 | i | . | -20.5 | 1.8 | -0.7 | 0.5
COC(=O)c1ccc(NC(=S)NC(=O)c2c(-c3ccccc3)noc2C)cc1 | -15.7 | 1.7 | i | . | -5.2 | -1.8 | 0.3 | 1.9
O=C(NCc1nnc(SCc2ccccc2)n1-c1ccccc1)C12CC3CC(CC(C3)C1)C2 | -5.6 | -0.4 | i | . | 37.4 | -2.8 | -7.8 | 88.6 | eIF4H FP inh retest=34.6;PABP FP inh retest=33.2

Of the compounds above, four have fluorine.
SMILES | CSC inhib | eIF4H FP inh | Rce1 inh | UUG fidelity | HIV Env fusion | MT1-MMP act inh | MT1-MMP act inh RFP | PABP FP inh | others
CCOC(=O)CCN(Cc1sccc1C)S(=O)(=O)c1ccc(F)cc1 | . | -2.0 | i | . | -19.7 | 6.6 | 0.7 | 7.5
N#C/C(=C\c1ccc(F)c(Cl)c1)S(=O)(=O)c1ccccn1 | -7.5 | 0.2 | i | . | 0.1 | 0.9 | 3.0 | -2.0
O=C(CSC1=NS(=O)(=O)c2cc(Cl)ccc2N1)Nc1ccccc1F | 4.8 | . | i | . | -2.0 | -5.0 | -3.5 | .
CCCCN(C)CCC(=O)Nc1ccc(F)c(F)c1 | -14.3 | -11.7 | i | . | 5.9 | 3.1 | 2.3 | -4.1

(next part)
SMILES | CSC inhib | eIF4H FP inh | Rce1 inh | UUG fidelity | HIV Env fusion | MT1-MMP act inh | MT1-MMP act inh RFP | PABP FP inh | others
Cc1ccc(CNC(=O)C2CNc3cc(C)ccc3O2)cc1 (stereo unspecified) | -7.8 | -16.6 | i | -11.2 | 11.8 | 9.5 | 5.5 | -7.9
O=C(NCc1cccnc1)c1ccc(Cl)c(S(=O)(=O)N2CCCCCC2)c1 | -6.2 | 1.1 | i | 5.6 | 20.2 | 1.1 | -12.5 | 12.4
CCCOc1ccc(C(=O)Nc2ccc3c(c2)OCO3)cc1 | 57.7 | -1.6 | i | -14.4 | -88.0 | 2.9 | -5.3 | -2.6
Cc1cccc2c1NC(=O)C21OCC(CO)([N+](=O)[O-])CO1 (stereo unspecified) | -13.4 | -7.4 | i | -22.7 | -1.8 | 1.2 | 2.9 | 5.4
CCOCc1cnc(C)nc1NCC(=O)c1c(C)[nH]c2ccccc12 | -5.8 | -5.2 | i | -11.5 | . | -5.5 | -11.1 | 16.0
COc1ccc(C(=O)Nc2ccc(CN3CCS(=O)(=O)CC3)cc2)cc1 | -9.8 | -0.2 | i | -13.3 | 9.0 | 3.7 | 0.0 | 13.6
COc1ccc(C(CC(=O)NC(C)c2ccc(-c3ccccc3)cc2)NC(C)=O)cc1 (stereo unspecified) | -7.0 | -26.1 | i | -9.0 | 7.1 | 0.5 | -6.8 | 3.0
NC(=S)N=Nc1c(O)[nH]c2cc(F)c(F)cc12 | -5.9 | -7.7 | i | . | -71.7 | 4.7 | 1.1 | 2.0
COc1ccc(S(=O)(=O)n2nc(OC(=O)c3cccs3)cc2N)cc1 | 1.0 | -5.6 | i | -12.8 | 23.1 | -0.2 | 0.0 | -2.0
COc1cc2c(C#Cc3cccnc3)c(-c3ccsc3)oc(=O)c2cc1OC | -23.1 | . | . | -21.8 | -31.5 | -5.1 | 0.1 | .
